Bioassay records: PubChem, several laboratories
RecA splice inh – blocks M. tuberculosis RecA intein splicing; inhibition, %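 (about 9 µM by stock and volumes)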; 0.75% of 290,000 active; cell-free RecA intein splicing, fluorescence; AID 2221; P9WHJ3; in the data active means inhibition above about 30%; inconclusive means no clear call, values can overlap the other calls;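 further: 0% = vehicle wells and 100% = reference inhibitor control wells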
Target sequence (P9WHJ3 whole entry, looked up, canonical isoform): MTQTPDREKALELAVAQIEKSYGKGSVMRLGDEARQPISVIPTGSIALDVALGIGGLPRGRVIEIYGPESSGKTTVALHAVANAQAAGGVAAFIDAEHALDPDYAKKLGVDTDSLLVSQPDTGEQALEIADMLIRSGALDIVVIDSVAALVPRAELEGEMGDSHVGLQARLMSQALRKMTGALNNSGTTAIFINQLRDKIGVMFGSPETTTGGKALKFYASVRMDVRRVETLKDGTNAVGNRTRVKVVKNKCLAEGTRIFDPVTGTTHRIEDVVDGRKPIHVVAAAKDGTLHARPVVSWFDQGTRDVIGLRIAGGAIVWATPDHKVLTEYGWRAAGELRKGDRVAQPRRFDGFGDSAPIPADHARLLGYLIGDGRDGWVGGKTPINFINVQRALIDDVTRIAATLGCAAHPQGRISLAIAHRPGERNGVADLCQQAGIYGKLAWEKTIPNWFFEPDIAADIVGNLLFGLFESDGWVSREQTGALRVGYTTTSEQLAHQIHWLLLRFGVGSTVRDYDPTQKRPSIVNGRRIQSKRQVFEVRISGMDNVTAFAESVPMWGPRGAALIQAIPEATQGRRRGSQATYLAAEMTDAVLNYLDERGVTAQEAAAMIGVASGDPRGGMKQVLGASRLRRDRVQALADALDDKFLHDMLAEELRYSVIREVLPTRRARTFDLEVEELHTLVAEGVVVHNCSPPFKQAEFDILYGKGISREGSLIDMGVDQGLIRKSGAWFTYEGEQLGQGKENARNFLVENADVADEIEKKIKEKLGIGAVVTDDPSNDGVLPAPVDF
Arbovirus anti – antivirals against arbovirus infection | 0.37% of 200,000 active | inhibition, % at 10 µM | arbovirus infection cell-based antiviral screen | AID 1251;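 active means inhibition from about 30%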;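 further: bluetongue infection of BSR cells; cell survival read as ATP light after 72 h; 0% = infected wells without compound and 100% = uninfected wells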
Mtb H37Rv – M. tuberculosis H37Rv growth inhibitors, H37Rv strain (AID 1626); M. tuberculosis H37Rv growth inhibition; higher % means a stronger effect; one-dose inhibition, % at 10 µM; IC50 in µM for titrated hits; 0.95% of 220,000 active;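 active means confirmed in a dose series; inconclusive means inhibition above 80% but not taken into the dose series; inactive means below 80% or under 30% at every dose of the series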;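 further: bacteria incubated seven days before Alamar blue readout; 0% = bacteria only wells and 100% = bacteria with antibiotic wells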
Mtb bLac sens – beta-lactam sensitization of Mtb H37Rv | M. tuberculosis H37Rv growth with meropenem, percent inhibition; hits of this screen are not shown here | inhibition, % at 25 µM | 0.27% of 330,000 active | AID 434955;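 active means about 74% or more and at least 40 points above the plate without the antibiotic, then above 30% in a dose series; inconclusive means first-round hits that could not be retested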;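 further: growth measured after seven days incubation then overnight dye step; 0% = bacteria only wells and 100% = bacteria with antibiotic; twin plates without the antibiotic show which effects depend on it; some results filed as inactive read as strong as hits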
YopH inh – YopH (Yersinia) phosphatase inhibition; fluorescence Ex485/Em525; inhibition, %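 (about 10 µM by stock and volumes)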; 0.16% of 140,000 active; AID 898;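 active means inhibition of 50% or more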;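 further: controls were vehicle for no effect and minimum signal wells for full effect; inactives centre near -20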
* = called active by the depositor; ? = inconclusive; · = no result given. Some of the compounds tested; rates above refer to the full screens.

canonical_smiles	RecA splice inh	Arbovirus anti	Mtb H37Rv	Mtb bLac sens	YopH inh
Cn1ncc(Cl)c1C(=O)N1CCN(S(=O)(=O)c2ccc(Cl)s2)CC1	1.1	·	·	-11	·
CC(=O)CSc1nnc(-c2ccc(S(=O)(=O)N3CCOCC3)cc2)n1C	0.6	·	·	-5	·
CCOc1ccc(C(C)=O)cc1CC(C(N)=O)C(N)=O	-2.8	8	·	-7	-12
CN1CCN(C(=O)C2CCCN(S(=O)(=O)c3ccc(Cl)cc3)C2)CC1 (centres undefined)	0.5	·	·	2	·
COc1cc2c(cc1OC)CN(C(=O)c1cc3ccccc3oc1=O)CC2	-0.6	-20	-2%	4	-14
Cc1cc2oc(=O)cc(CN3CCCc4ccccc43)c2cc1C	0.4	8	-2%	2	-28
COCc1cc(C)nc(Nc2ccccc2OC)c1C#N	1.3	·	·	3	·
Cc1nc2ccccc2c(=O)n1CCc1ccc(O)cc1	-2.1	·	·	-6	·
COC(=O)c1ccc(CSc2nnc(-c3ccncc3)o2)cc1	0.0	·	·	11	·
CCc1c(C)sc(NC(=O)C2CC2c2ccccc2)c1C(N)=O (centres undefined)	0.2	4	-3%	2	26
CC(C)Sc1cc(N2CCCC2)nc(-c2ccc(F)cc2)n1	-0.9	-20	9%	20	1
COc1cc(OC)cc(C(=O)NCCC(c2ccccc2)c2ccccc2)c1	4.1	·	·	4	·
Cc1ccc(NC(=O)c2cccc(NC(=O)CCC(=O)O)c2)cc1C	0.8	-1	-2%	0	·
COc1ccc(CCNc2oc(-c3ccc(OC)c(OC)c3)nc2P(=O)(OC)OC)cc1OC	-2.2	3	1%	-7	-13
O=C(CC1C(=O)NCCN1Cc1cccc(C(F)(F)F)c1)NC1CCOCC1 (centres undefined)	-5.1	·	·	6	·
O=C(C1CCC1)N1CCc2cc(S(=O)(=O)N3CCCCC3)ccc21	-0.2	-7	·	-1	-115
CN(Cc1cnn(C)c1)C(=O)CC1C(=O)NCCN1Cc1cccc(Oc2ccccc2)c1 (centres undefined)	2.6	·	3%	-1	·
O=C(CCn1c(=O)sc2ccccc21)NCCN1CCOCC1	-1.6	5	5%	5	-10
O=C(NC(=S)Nc1ccc(O)cc1)c1cncc(Br)c1	-2.8	·	·	-12	·
Cn1cnnc1SC1c2cccc3cccc(c23)C1NS(=O)(=O)c1ccccc1 (centres undefined)	0.2	12	-4%	14	-11
O=C(N/N=C/c1ccc(N2CCOCC2)s1)c1ccccc1Br	-4.3	18	2%	-9	·
CN(Cc1ccccc1)C(=O)CN1CCN(C(c2ccccc2)c2ccccc2)CC1	9.1	-11	11%	21	·
Cc1ccc(NC(=O)CSCC(=O)OCc2cc(=O)oc3cc(O)ccc23)c(C)c1	-28	·	·	-7	·
C#CCOCCOCCOCCNc1nc(N2CCN(C(=O)C([C@@H](C)CC)n3cc(C(N)CO)nn3)CC2)nc(N2CCN(C(=O)[C@H](CCC(=O)O)n3cc(C(N)Cc4ccc(O)cc4)nn3)CC2)n1 (some centres undefined)	-5.1	·	2%	·	·
Cc1ccc2[nH]cc(C(=O)CCl)c2c1	28	-39	1%	91	-20
C=CCn1c(CSc2ccccc2[N+](=O)[O-])n[nH]c1=S	2.0	·	·	0	·
COc1ccccc1NC(=O)Cn1cnc2sc(C(=O)Nc3cc(OC)c(OC)c(OC)c3)c(C)c2c1=O	3.3	·	·	3	·
COc1ccc(CC(=O)Nc2ccccc2N2CCCC2)cc1OC	1.3	·	·	-1	·
C=CCn1c(Cc2csc(N)n2)nnc1SCC(=O)Nc1ccc(C(=O)OCC)cc1	-2.4	8	1%	48	35
CCCCCCC(=O)NNC(=O)c1c(O)c2ccccc2n(CCC)c1=O	2.6	-15	-5%	-4	·
O=C(C(Cl)Cl)N1c2ccccc2OCC1c1ccccc1 (centres undefined)	72*	-18	-8%	-11	-14
Cc1ccc(-n2nnnc2SCC(=O)Nc2c(C)n(C)n(-c3ccccc3)c2=O)cc1	-1.1	5	-8%	15	4
Cc1ccc(N(CC2CO2)S(=O)(=O)c2ccc(C)cc2)cc1 (centres undefined)	7.8	13	-7%	1	·
CCC(NC(=O)c1ccncc1)c1ccccc1 (centres undefined)	0.5	·	·	2	·
Cn1c(=O)c(Sc2ccc(Cl)cc2)c(O)c2ccccc21	-0.3	4	-1%	-3	-29
COc1ccc(CCn2c(NN=C3CCCCC3)nc3c2c(=O)[nH]c(=O)n3C)cc1	1.8	·	7%	-4	·
O=C(CN(c1ccc(F)cc1)S(=O)(=O)c1ccc2c(c1)OCCO2)NCc1cccnc1	-2.0	13	-8%	-6	-17
COc1ccc(CNC(=O)c2cnc(C)cn2)cc1	2.2	12	1%	11	-37
Cc1ccc2oc(C(=O)N3CCC(O)(c4ccccc4)CC3)c(C)c2c1	2.1	·	·	-2	·
O=C(C1=C[C@H](c2coc3ccccc3c2=O)C[C@H](OCCCCO)O1)N1CCOCC1	-2.1	2	-4%	-4	·
CCc1ccc(N2C(=O)NC(=O)C(CCc3ccncc3)(CCc3ccncc3)C2=O)cc1	-3.6	-4	3%	0	-9
O=C1NCCN1CCNS(=O)(=O)c1ccccc1[N+](=O)[O-]	0.0	·	·	-10	·
COc1ccc2cc3cc(C(=O)NCc4ccc5c(c4)OCO5)oc3nc2c1	-5.3	-7	·	16	-28
O=C(Nc1ccccc1Cl)ON=C1c2ccccc2-c2ccccc21	4.4	4	21%	90	8
CC(=O)N1CCC(C(=O)Nc2cc(C)cc(C)c2)CC1	·	·	3%	-6	·
CC(=O)c1ccc(S(=O)(=O)N2CCC(NC(=O)Nc3cccc(F)c3)CC2)cc1	-1.5	0	7%	-10	·
CC(Sc1nc(NCc2ccccc2)nc(N2CCOCC2)n1)C(=O)Nc1ccccc1 (centres undefined)	2.7	-5	3%	-10	-3
N#CC1=C(N)Oc2n[nH]c(-c3ccc(F)cc3)c2C1c1ccncc1 (centres undefined)	62*	1	·	-6	-16
CC1(C)C(C=C(Cl)Cl)C1C(=O)N1CCN(c2ccccc2)CC1 (centres undefined)	3.3	-1	1%	-17	-13
CCCCOc1ccc(/C=N/NC(=O)c2nnn(-c3nonc3N)c2CN2CCCCCC2)cc1	-0.2	·	·	-4	·

2 of these compounds, reformatted:
COc1ccc2cc3cc(C(=O)NCc4ccc5c(c4)OCO5)oc3nc2c1
  RecA splice inh: -5.3; Arbovirus anti: -7; Mtb H37Rv: ·; Mtb bLac sens: 16; YopH inh: -28

O=C(Nc1ccccc1Cl)ON=C1c2ccccc2-c2ccccc21
  RecA splice inh: 4.4; Arbovirus anti: 4; Mtb H37Rv: 21%; Mtb bLac sens: 90; YopH inh: 8

Next section.
canonical_smiles	RecA splice inh	Arbovirus anti	Mtb H37Rv	Mtb bLac sens	YopH inh
C=C(C)c1cccc(C(C)(C)NC(=O)NCc2ccncc2)c1	-1.0	5	-17%	-13	·
COc1ccc(SCC2CN(C)CCC2c2ccc(F)cc2)cc1 (centres undefined)	2.0	·	·	-17	·
CC(C)(C)C1CCc2c(sc(NC(=O)CSc3nnc(-c4ccccc4)o3)c2C#N)C1 (centres undefined)	10	-1	>100µM*	8	2
C=CCOC(=O)C1=C(C)NC(SCC(=O)OCC)=C(C#N)C1c1ccc(C)cc1 (centres undefined)	10	-5	-4%	100	-132
COc1cc2cc(C(c3nnnn3C(C)(C)C)N3CCc4ccccc43)c(=O)[nH]c2cc1OC (centres undefined)	2.7	-17	47%	95	-40
COc1cc(/C=C(\C#N)C(=O)NC(C)C)cc(Cl)c1O	-3.6	-3	-9%	0	·
CCC1C(c2ccccc2)NC(c2ccccc2)CC1(O)c1ccc(F)cc1 (centres undefined)	2.6	·	10%	-1	·
CCCc1nnc(NC(=O)CCC(=O)N2CCN(CCOc3ccc(C)cc3)CC2)s1	-2.8	13	16%	6	2
O=C(/C=C/c1ccccc1)/C=C/c1ccccc1	4.0	-36	5.9µM*	100	-29
CCC(=NCC1CCCO1)c1c(O)n(-c2ccccc2)c(=O)[nH]c1=O (centres undefined)	-0.3	13	-2%	-3	-17
CCOc1ccccc1NC(=O)CN(Cc1ccccc1)S(C)(=O)=O	0.7	-1	-5%	1	9
Cc1[nH]c2ccccc2c1/C=N/NC(=O)CNC(=O)c1cccs1	-0.5	·	-9%	-9	·
CC1CC(C)CN(S(=O)(=O)c2ccc3c(c2)CCN3C(=O)C2CC2)C1 (centres undefined)	1.0	·	·	-6	·
CCCC(=O)NC(=S)Nc1ccc(N2CCOCC2)c(Cl)c1	2.7	4	-1%	6	-15
Cc1ccc(NC(=O)CNC(=O)c2cccs2)c(O)c1	-1.8	·	·	-9	·
CC(C)(C)C(=O)N1CCC[C@H]1C(O)(c1ccccc1)c1ccccc1	-1.9	1	8%	2	-26
CCOc1cccc(OCCOCCOc2ccccc2C(C)=O)c1	3.8	18	18%	-1	-1
C[C@@H](C(=O)NCC1CC1)[C@@H]1C[C@@]1(C)[C@@H](NC(=O)OCc1ccccc1)c1ccccc1	1.6	-4	-1%	0	-25
O=C(CSc1nc2ccccc2[nH]1)c1ccc2c(c1)OCO2	-0.8	0	-5%	-2	-11
COc1cccc(-c2nc(Oc3cc(C)cc(C)c3)c3ccccc3n2)c1O	1.1	-10	-1%	6	4

Structural class, the entries above with a COOH group
canonical_smiles	RecA splice inh	Arbovirus anti	Mtb H37Rv	Mtb bLac sens	YopH inh
Cc1ccc(NC(=O)c2cccc(NC(=O)CCC(=O)O)c2)cc1C	0.8	-1	-2%	0	·
C#CCOCCOCCOCCNc1nc(N2CCN(C(=O)C([C@@H](C)CC)n3cc(C(N)CO)nn3)CC2)nc(N2CCN(C(=O)[C@H](CCC(=O)O)n3cc(C(N)Cc4ccc(O)cc4)nn3)CC2)n1 (some centres undefined)	-5.1	·	2%	·	·

Going on with the list.
canonical_smiles	RecA splice inh	Arbovirus anti	Mtb H37Rv	Mtb bLac sens	YopH inh
O=C(O)CN1C(=O)CC(Cc2ccc(Cl)cc2)C1=O (centres undefined)	-3.5	9	-7%	-26	-25
Cc1cccc(NC(=O)CSc2nnc(-c3ccco3)c(-c3ccco3)n2)c1C	3.0	27	4%	0	42
O=C(O)C1=C[C@@H](c2ccc(C(F)(F)F)cc2)C[C@@H](OCc2ccc(CO)cc2)O1	-0.5	4	·	-4	·
Cc1ccc(S(=O)(=O)N(C)C)cc1NC(=O)c1ccc(OC(F)(F)F)cc1	1.0	-4	-8%	-10	-14
CC1(C)c2cc(O)ccc2OC1N1CCOCC1 (centres undefined)	-4.6	·	·	-3	·
COc1ccc(C(=O)NCCS(=O)(=O)N2CCN(Cc3ccccc3)CC2)cc1	-1.5	·	·	-8	·
COC(=O)CSc1nnc(-c2ccoc2C)n1-c1ccc(C)cc1	0.4	8	-5%	32	-13
CC(C)(C)c1cc(NC(=O)CSc2nncs2)n(-c2ccccc2)n1	-4.8	-1	11%	2	-2
COC(=O)c1n[nH]n(-c2ccc(F)c(Cl)c2)c1=O	4.8	·	5%	1	·
COc1cccc(OC)c1C(=O)Nc1c(C(=O)N2CCN(c3ccccn3)CC2)oc2ccccc12	-5.5	·	·	0	·
O=C(COc1ccc(Br)cc1)N1CCN(c2ccc([N+](=O)[O-])c(N3CCCCC3)c2)CC1	1.4	13	0%	7	-4
COC(=O)c1cn(NC(=O)C2COc3ccccc3O2)c(=O)c2ccccc12 (centres undefined)	-1.2	0	-5%	2	-15
CCOC(=O)N1CCc2c(sc3c2c(=O)n(Cc2ccccc2)c(=O)n3CC(=O)NCCOC)C1	-1.1	18	0%	-2	·
CN(Cc1ccon1)Cc1cn(C)nc1-c1ccc(Oc2ccccc2)cc1	3.0	·	-9%	3	·
CCC(CO)NS(=O)(=O)c1cc(-c2nn(C)c(=O)c3ccccc23)ccc1C (centres undefined)	0.7	-21	0%	5	·
O=C(c1ccco1)N1CCC(c2nc(-c3ccc(F)cc3)no2)CC1	-5.3	10	-4%	-7	-28
COc1ccc2nc(NC(=O)CN3C(=O)NC4(CCCCC4)C3=O)sc2c1	-6.4	·	·	0	·
COc1cc(N)c(Cl)cc1C(=O)OC(C)C(=O)Nc1cccc(S(=O)(=O)N2CCOCC2)c1 (centres undefined)	1.4	·	·	-3	·
O=C1/C(=C/c2cccs2)CCC/C1=C\c1cccs1	6.0	·	·	-5	·
CCC(C)(C)NC(=O)C(c1cccc(OC)c1)N(C(=O)CNC(=O)c1cccs1)c1cccnc1 (centres undefined)	-0.7	·	·	3	·
Nc1ccc(Cc2ccccn2)cc1	1.2	-23	?	94	·
Cc1oc(-c2ccc(Cl)cc2)nc1CS(=O)CC(=O)NCCCN1CCN(Cc2ccccc2)CC1 (centres undefined)	-1.2	·	·	4	·
C/C(=N/NC(=O)CCC(=O)Nc1cccc(Cl)c1)c1ccc(C)cc1	-0.8	3	3%	1	-17
CCOc1ccc(N(CC(=O)Nc2cccc(OC)c2)S(C)(=O)=O)cc1	-2.3	·	·	-6	·
